Ab BasE inh – inhibitors of Acinetobacter baumannii siderophore enzyme BasE | purified BasE, fluorescence polarization binding displacement | inhibition, % (test concentration not listed) | hit rate 0.1% among 84,000 | AID 485350;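 active means both replicates above 25% with normal brightness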;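 further: 0% = negative plate control signal and 100% = positive plate control signal; stock transfer was 100 nL into about 30 µL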
KSHV LANA nucl – LANA-nucleosome interaction inhibition; z-score (test concentration not listed); FITC-LANA1-23 / chicken nucleosome fluorescence polarization; hits give low values; AID 720717; hit rate 0.3% among 51,000;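 active means both repeat wells score below -2 in polarization z-score versus plate sample wells, excluding overly bright wells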;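 further: 100 nL library stock added to about 30 µL; numbers are from one replicate; some results filed as inactive read as strong as hits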
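test system = FITC-LANA peptide and chicken nucleosomes | amount = 240 nM purified chicken nucleosomes (480 nM peptide binding sites), final | reagent = 50 nM FITC-LANA1-23 probe | medium = TEN-BT buffer, pH 7.5 | doses = single compound addition by pin transfer, 100 nL per well | timing = 10–45 min, room temperature | detection = fluorescence polarization | repeats = duplicate plates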
* hit, by the source's call; . = not tested or not shown; & = joins results of further samples.

Fields: Ab BasE inh | KSHV LANA nucl
Cc1[nH]c2ccccc2c1C(Nc1cccc(C(F)(F)F)c1)c1ccccn1 (configuration not stated)
    1.8 | .
COc1ccc(-c2n[nH]c(=S)n2C)cc1
    -1.0 | .
CCNC(=O)CSCc1ccc(C)cc1
    4.6 | -0.831
c1ccc(CCN2CCN(c3ccccc3)CC2)cc1
    -2.5 | 0.439
CCc1ccccc1NNC(N)=S
    2.4 | 0.24
CN(C)c1nc2n(c(=O)n1)CCN2C(=O)Nc1ccccc1
    -1.2 | -0.45
CN=c1scc(-c2ccc3c(c2)NC(=O)CO3)n1C
    -1.7 | .
O=C(OC1CCCC1=O)c1ccc(N2CCCC2=O)cc1 (configuration not stated)
    5.1 | .
COC(=O)COc1ccc2c(=O)c(Oc3ccc(OC)cc3)coc2c1
    1.5 | .
c1ccc2c(c1)CCCC2NC1=NCCC1 (configuration not stated)
    0.7 | .

Reprinted at random: 5 records from the list, in no set order.
Fields: Ab BasE inh | KSHV LANA nucl
COC(=O)COc1ccc2c(=O)c(Oc3ccc(OC)cc3)coc2c1
    1.5 | .
CCc1ccccc1NNC(N)=S
    2.4 | 0.24
O=C(OC1CCCC1=O)c1ccc(N2CCCC2=O)cc1 (configuration not stated)
    5.1 | .
c1ccc2c(c1)CCCC2NC1=NCCC1 (configuration not stated)
    0.7 | .
CN=c1scc(-c2ccc3c(c2)NC(=O)CO3)n1C
    -1.7 | .

Remaining list, next part:
Fields: Ab BasE inh | KSHV LANA nucl
Nn1cnc2ccccc21
    -4.0 | .
Cc1nc(NCCc2ccccc2)c2c3c(sc2n1)CCCC3
    1.1 | .
COc1ccccc1-c1ccc(=O)n(CC#N)n1
    3.8 | 0.1
CC(=O)N(C1=C(O)c2ccccc2C(=O)C1=O)C1CCCCC1
    1.4 | 0.214
N#Cc1ccccc1OCC(=O)OCC(=O)NC1CCCCCC1
    1.8 | .
COCCn1c(=NC(=O)CN2C(=O)c3ccccc3C2=O)sc2ccccc21
    0.2 | 0.953
Nc1c(C(=O)NCc2ccc3c(c2)OCO3)c2nc3ccccc3nc2n1C1CCCCC1
    -3.1 | .
Cc1cnc(C(=O)N(CC(=O)Nc2cccc(C)c2C)CC2CCCO2)cn1 (configuration not stated)
    1.4 | .
Cc1noc(C)c1NC(=O)NCc1cc(F)cc2c1OCOC2
    0.5 | -0.0895
CC1=NN(c2ccc(C)cc2)C(=O)C1=C1SCCCS1
    2.5 | .
Cc1ccc(NC(=S)C(C#N)C(N)=O)cc1Cl (configuration not stated)
    2.5 | .
COc1ccc(NC(=O)c2cc3ccccc3o2)cn1
    -3.2 | 1.95
CSc1nc(C)cc(Oc2ccc(=O)n(-c3ccccc3)n2)n1
    3.0 | -0.739
CC1C(C#N)=C(SCC#N)NC2=C1C(=O)CC(C)(C)C2 (configuration not stated)
    3.1 | -0.119
Oc1ccc(-c2nc3c4ccccc4ncn3n2)cc1
    -0.2 | .
CCC1(CC)Cc2ccccc2-c2nc3n(c(=O)c21)CCS3
    1.8 | .
CCCNC(=O)c1ccc(-c2nc(CS(=O)c3ccccc3)c(C)o2)cc1 (configuration not stated)
    -1.4 | -1.6
O=C(C[n+]1cccc(/C=N/O)c1)NCc1ccccc1
    0.1 | .
Nc1cc(C(F)(F)F)ccc1NCCC(=O)O
    . | -1.77
O=C(Cn1cc(/C=C2\SC(=S)NC2=O)c2ccccc21)NCc1ccco1
    -2.9 | -0.134
CN(C)/C=C(\C(=O)Nc1ccc(F)c(F)c1F)S(=O)(=O)c1ccccc1
    -4.6 | .
COc1cc(-c2nc(=S)[nH][nH]2)cc(OC)c1OC
    0.2 | -0.274
O=C(NCc1cc(F)cc2c1OCOC2)c1ccc(N2CCOCC2)nc1
    -1.8 | 0.128
COCCN(Cc1ccccc1)C(=O)c1cccc(S(=O)(=O)N2CC(C)OC(C)C2)c1 (configuration not stated)
    2.1 | .
CCc1ccc(OCC(=O)Nc2cc(-c3nc4ccccc4o3)ccc2OC)cc1
    -0.6 | 0.352
Cc1ccc(S(=O)(=O)N(CCc2ccccn2)c2ccc(C(C)C)cc2)cc1
    -0.4 | .
Cc1oc(C(=O)NC(=O)Nc2cccc(C(F)(F)F)c2)nc1-c1ccccc1
    1.8 | -0.733
CC(C)(C)NC(=O)C1C2CCCCC21 (configuration not stated)
    0.8 | -0.36
CCN1C(=O)C(Cc2nc3ccccc3c(=O)n2CC)c2ccccc21 (configuration not stated)
    -3.0 | 1.07
COCCNC(=O)Cc1ccc(C)cc1
    0.5 | -0.068
COc1ccc(OC)c(C(=O)c2ccc(C(=O)N3CCCCC3)cc2)c1
    -0.5 | 0.059
CCOC(=O)c1c(C)oc2c1c(C=NCCC1=CCCCC1)c(O)c1ccccc12
    4.7 | .
CCOC(=O)C1=C(O)C(=O)N(CCCn2ccnc2)C1c1ccc(OC)cc1 (configuration not stated)
    -0.2 | .
Nc1ncc(C(F)(F)F)cc1Cl
    -0.3 | -0.439
Cc1cc(C)n2nc(SCC(=O)N3CCNC3=O)nc2n1
    4.2 | .
Cc1ccc(Nc2nc3nonc3n3nnnc23)cc1C
    -2.7 | 2.17
c1ccc(N=P(c2ccc(N3CCOCC3)cc2N2CCOCC2)(N2CCOCC2)N2CCOCC2)cc1
    -2.6 | .
CC(C)(CO)NC(=O)NCC12CC3CC(CC(C3)C1)C2
    1.7 | 0.174
COc1cc2nc(CN(C)Cc3ccc(C)o3)[nH]c(=O)c2cc1OC
    -2.3 | .
Cc1noc(C)c1CN1C(=O)NC(CCc2ccccc2)C1=O (configuration not stated)
    1.7 | .
CN(C)C1(CNC(=O)C2COc3ccccc3O2)CCCCC1 (configuration not stated)
    -2.7 | .
CCS(=O)(=O)N1CCC(C(=O)OCC(=O)c2cc(C)n(C(C)C)c2C)CC1
    -2.2 | .
CCC(=O)Nc1c(C(=O)N2CCOCC2)oc2ccccc12
    4.2 | .
CCC1CCCCN1C(=O)CCNC(=O)Cn1cnc2ccccc2c1=O (configuration not stated)
    -1.2 | -0.159
COc1ccc(C(CC(=O)O)N2C(=O)c3ccccc3C2=O)cc1 (configuration not stated)
    2.1 | 0.196
CC(C)(C)c1cc(NC(=O)/C=C/c2cccs2)n(-c2ccccc2)n1
    -0.3 | .
COC(=O)c1ccccc1OCCOCCOc1cccc2cccnc12
    -0.2 | -0.625
CC(=O)Nc1ccc(SCC(=O)C(C)(C)C)cc1
    -7.2 | .
O=c1[nH]c2cc3c(cc2cc1CN(CCN1CCOCC1)C(=S)Nc1ccccc1)OCCO3
    2.3 | -0.075
c1ccc(-c2[nH]ncc2CN2CCN(Cc3ccc4c(c3)OCO4)CC2)cc1
    -0.8 | -0.068

By substructure, the entries above containing an NH in an aromatic ring (six)
Fields: Ab BasE inh | KSHV LANA nucl
Cc1[nH]c2ccccc2c1C(Nc1cccc(C(F)(F)F)c1)c1ccccn1 (configuration not stated)
    1.8 | .
COc1ccc(-c2n[nH]c(=S)n2C)cc1
    -1.0 | .
COc1cc(-c2nc(=S)[nH][nH]2)cc(OC)c1OC
    0.2 | -0.274
COc1cc2nc(CN(C)Cc3ccc(C)o3)[nH]c(=O)c2cc1OC
    -2.3 | .
O=c1[nH]c2cc3c(cc2cc1CN(CCN1CCOCC1)C(=S)Nc1ccccc1)OCCO3
    2.3 | -0.075
c1ccc(-c2[nH]ncc2CN2CCN(Cc3ccc4c(c3)OCO4)CC2)cc1
    -0.8 | -0.068

(listing goes on)
Fields: Ab BasE inh | KSHV LANA nucl
CCOc1ccc2[nH]c(=S)c(C#N)cc2c1
    2.2 | -0.469
CCn1c(SCC(O)c2ccccc2)nnc1-c1ccccc1 (configuration not stated)
    -0.3 | .
Cc1c(C(=O)O)sc2[nH]c(=S)[nH]c(=O)c12
    -0.5 | -1.16
COc1ccc(C2C(C#N)=C(/N=C/N(C)C)Oc3c2c(C)nn3-c2ccccc2)cc1 (configuration not stated)
    0.5 | .
O=C(c1ccccc1)n1c(=O)oc2ccccc21
    -1.0 | -0.834
O=C(c1ccc2ccccc2n1)N1CCCCCC1
    -4.1 | .
Cn1cccc1/C=C1\CCC/C(=C\c2cccn2C)C1=O
    -15.6 | 5.25
Cc1cccc(NC(=O)NC2CC3CCCC(C2)N3CC(C)C)c1 (configuration not stated)
    1.4 | 0.479
CCOc1cc2c(C#N)c(N(CC)CC)nc(N)c2c(N)n1
    -3.3 | .
CCn1c(=O)c(=O)[nH]c2cc(C(=O)NCC3CCCCC3)ccc21
    -3.9 | .
COc1cccc2sc(=NC(=O)COc3ccc(Cl)cc3Cl)n(C)c12
    4.4 | .
Cc1ccc(C(CC(=O)NCc2ccco2)N2Cc3ccccc3C2=O)cc1 (configuration not stated)
    -1.3 | -0.246
CN(CCc1ccccn1)c1ncnc2[nH]ncc12
    1.4 | .
Cc1ccc(S(=O)(=O)NCC(c2ccc(N(C)C)cc2)N(C)C)cc1 (configuration not stated)
    -0.7 | 0.582
CC(CS(=O)(=O)c1ccc2c(c1)NC(=O)C(C)S2)C(=O)NCc1ccccc1 (configuration not stated)
    -1.7 | .
CN(C)S(=O)(=O)c1ccc(NC(=O)CNCc2ccco2)cc1
    -2.7 | -0.068
S=c1[nH]c2ccc3ccccc3c2[nH]1
    0.2 | -0.79
Cc1ccc(C)c(OCCC(=O)NCc2ccc3c(c2)OCO3)c1
    2.1 | .
Cc1ccc(NC(=O)CN2CCc3ccccc32)cc1C
    1.1 | .
CN1CCN(C2=NC(=O)/C(=C\C=C/c3ccccc3)S2)CC1
    1.5 | -0.201
COC(=O)C1C2C=CC3(CN(C(C)c4ccncc4)C(=O)C13)O2 (configuration not stated)
    1.8 | -0.548
O=C1CCSc2cccc3cccc(c23)N1
    -1.0 | 0.355
O=C1CC(Sc2ccc(Cl)cc2)C(=O)N1Cc1cccnc1 (configuration not stated)
    2.3 | 0.351
CCn1c(SCc2cc(=O)[nH]c3ccccc23)nnc1C1CC1
    2.7 | 0.606
Cc1cccc(C)c1NC1=NC(C)(CO)CS1 (configuration not stated)
    1.5 | .
Cc1cccc(C2N3CC4(C)CN2CC(C)(C3)C4)c1 (configuration not stated)
    1.7 | 0.838
C=CCNC(=O)CSc1nnc(-c2ccc3nonc3c2)n1C
    -0.1 | .
COc1ccccc1NC(=O)CCC1CC(=O)OC1c1ccccc1 (configuration not stated)
    0.2 | -0.452
Cn1c(CN2CC(c3ccccc3)CC2=O)n[nH]c1=S (configuration not stated)
    1.8 | -1.17
CCC(C)NC(=O)/C=C/c1ccc(C)cc1 (configuration not stated)
    0.3 | -0.334
Cc1ccnc(NC(=O)c2ccc3c(c2)C(=O)N(Cc2ccco2)C3=O)c1
    0.4 | -0.756
O=C(CO)Nc1cccc2nsnc12
    -3.2 | .
Cn1c(SCC(=O)N2CCCC(c3nc4ccccc4s3)C2)nc2ccccc21 (configuration not stated)
    2.5 | .
FC(F)(F)c1ccc(Cl)c(NNC2=NCCCCC2)c1
    0.0 | .
COC(=O)C1C(=O)N2CCCSC2=C(C#N)C1c1cccs1 (configuration not stated)
    2.0 | .
O=c1[nH]n(CC2COC3(CCCCC3)O2)c(=O)c2ccccc12 (configuration not stated)
    -1.8 | 0.254
CC(C)(C)NC[C@H](O)COc1nsnc1N1CCOCC1
    0.5 | 0.336&0.254
CNC(=O)Nc1cccc2cccnc12
    -1.1 | .
O=C(Nc1ccc(F)cc1)C1CCCN(c2ncccn2)C1 (configuration not stated)
    -1.4 | 2.68
CCC1CSC(Nc2cccc(Cl)c2)=N1 (configuration not stated)
    0.9 | .
Cn1ccnc1S/C(=C/C=C(C#N)C#N)c1ccc(Cl)cc1
    1.1 | 0.067
Cc1ccc(NS(=O)(=O)N2CCCCC2)cc1
    2.6 | -1.51
CCCCNc1nc2c(S(=O)(=O)c3ccccc3)nnn2c2ccsc12
    1.4 | -1.49
O=C(NCc1ccccc1)c1ccccc1OCc1nnc(-c2ccc(Cl)cc2)o1
    1.2 | .
O=C(O)CCCC(=O)N1N=C(c2ccccc2)CC1c1ccccc1 (configuration not stated)
    -2.7 | .
CC1Cc2ccccc2N1C(=O)COC(=O)c1ccccc1N=NN(C)C (configuration not stated)
    0.8 | .
Cc1noc(C)c1S(=O)(=O)N1CCC(C(=O)NCCCN2CC(C)CC(C)C2)CC1 (configuration not stated)
    1.9 | -0.154
COC(=O)c1ccc(Cn2ccnc2)cc1
    1.4 | -0.865
OC1c2ccccc2-c2ccccc2C1O (configuration not stated)
    4.5 | -0.0395
Cn1cnn(CN2CCCCC2)c1=S
    2.8 | .

The results go on:
Fields: Ab BasE inh | KSHV LANA nucl
Cc1ccc(CNC(=O)c2cc(C3CC3)nc3c2cnn3C(C)C)cc1
    -1.7 | .
CN(Cc1ccccc1)C(=O)C1=CC(c2cccs2)=NS(=O)(=O)N1C
    1.9 | -0.825
O=S1(=O)N=C2CCCCCN2C(c2ccc(Br)cc2)N1 (configuration not stated)
    2.0 | .
O=C(NCCCc1ccccc1)c1ccc(Br)o1
    -2.1 | 0.403

Screens deposited in PubChem by ICCB-Longwood Screening Facility, Harvard Medical School.

Only part of the results is shown. The share of hits here may be higher or lower than overall.
